Screening results: PubChem, several laboratories
YopH inh – blocks Yersinia enterocolitica YopH tyrosine phosphatase; fluorescence Ex485/Em525; inhibition, %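 (about 10 µM by stock and volumes)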; 140,000 compounds, 0.16% hits;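 active = inhibition of 50% or more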;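 also: controls were vehicle for no effect and minimum signal wells for full effect; inactives centre near -20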
Mtb H37Rv – M. tuberculosis H37Rv growth inhibitors, H37Rv strain (AID 1626) | M. tuberculosis H37Rv growth inhibition; higher % means a stronger effect | one-dose inhibition, % at 10 µM; IC50 in µM for titrated hits | 220,000 compounds, 0.95% hits;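 active = confirmed in a dose series; inconclusive = inhibition above 80% but not taken into the dose series; inactive = below 80% or under 30% at every dose of the series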;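 also: bacteria incubated seven days before Alamar blue readout; 0% = bacteria only wells and 100% = bacteria with antibiotic wells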
Mtb betalactam – beta-lactam sensitization of Mtb H37Rv. 330,000 compounds, 0.27% hits. M. tuberculosis H37Rv growth with meropenem, percent inhibition; hits of this screen are not shown here. inhibition, % at 25 µM;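 active = about 74% or more and at least 40 points above the plate without the antibiotic, then above 30% in a dose series; inconclusive = first-round hits that could not be retested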;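 also: growth measured after seven days incubation then overnight dye step; 0% = bacteria only wells and 100% = bacteria with antibiotic; twin plates without the antibiotic show which effects depend on it; some results filed as inactive read as strong as hits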
Arbovirus anti – arbovirus infection inhibition. inhibition, % at 10 µM. AID 1251. arbovirus infection cell-based antiviral screen. 200,000 compounds, 0.37% hits;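 active = inhibition from about 30%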;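 also: bluetongue infection of BSR cells; cell survival read as ATP light after 72 h; 0% = infected wells without compound and 100% = uninfected wells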
RecA splice inh – Mtb RecA intein splicing inhibition | P9WHJ3 | cell-free RecA intein splicing, fluorescence | inhibition, %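 (about 9 µM by stock and volumes)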 | 290,000 compounds, 0.75% hits | AID 2221; in the data active = inhibition above about 30%; inconclusive = no clear call, values can overlap the other calls;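 also: 0% = vehicle wells and 100% = reference inhibitor control wells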
Target sequence (P9WHJ3 whole entry, looked up, canonical isoform): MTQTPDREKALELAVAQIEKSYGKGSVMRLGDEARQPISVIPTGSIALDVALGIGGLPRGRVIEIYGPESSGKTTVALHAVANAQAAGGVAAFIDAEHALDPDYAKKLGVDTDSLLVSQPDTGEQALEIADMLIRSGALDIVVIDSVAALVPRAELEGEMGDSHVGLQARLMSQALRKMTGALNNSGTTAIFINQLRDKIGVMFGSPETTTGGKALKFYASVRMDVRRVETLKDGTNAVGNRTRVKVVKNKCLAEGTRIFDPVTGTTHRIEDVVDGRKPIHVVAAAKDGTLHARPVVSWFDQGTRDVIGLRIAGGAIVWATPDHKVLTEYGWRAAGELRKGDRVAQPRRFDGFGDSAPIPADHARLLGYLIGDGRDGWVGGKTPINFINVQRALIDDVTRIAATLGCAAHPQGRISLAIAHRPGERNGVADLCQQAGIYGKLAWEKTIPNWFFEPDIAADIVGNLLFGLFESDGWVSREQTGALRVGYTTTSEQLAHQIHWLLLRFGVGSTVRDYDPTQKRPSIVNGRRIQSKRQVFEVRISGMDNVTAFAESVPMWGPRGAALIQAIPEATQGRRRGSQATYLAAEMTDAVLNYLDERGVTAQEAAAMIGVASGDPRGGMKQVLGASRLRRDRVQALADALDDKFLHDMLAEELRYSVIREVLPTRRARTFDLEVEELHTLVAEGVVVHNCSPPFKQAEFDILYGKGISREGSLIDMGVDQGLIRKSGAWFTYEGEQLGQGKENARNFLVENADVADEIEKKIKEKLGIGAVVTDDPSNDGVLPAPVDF
Arbovirus anti repeat – recorded beside Arbovirus anti, whose call it bears; inhibition, %; measured here: 10K subset replicate screen; many hits read low in the repeat;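 first of two repeat runs on a subset; 0% = infected and 100% = uninfected wells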
Active calls of the source: *; ? = inconclusive; . = not tested or not shown. A portion of the library. The share of hits here may be higher or lower than overall.

SMILES	YopH inh	Mtb H37Rv	Mtb betalactam	Arbovirus anti	RecA splice inh	others
CCOc1ccc(CCNC(=O)c2cc(=O)[nH]c3ccc(S(=O)(=O)N(CC)CC)cc23)cc1OCC	.	.	4	.	0.4
CC(C)CN(Cc1cc(=O)oc2cc3c(cc12)CCCC3)CC(C)C	.	3%	-3	.	3.0
COc1ccc(N(C(=O)c2ccc3c(c2)OCO3)C2C=CS(=O)(=O)C2)c(OC)c1 (configuration not stated)	.	.	2	.	-0.4
Cc1ccc(NC(=O)C[n+]2cc(-c3ccccc3)n3c2CCC3)cc1	.	-2%	-7	.	0.3
O=C(/C=C/c1ccco1)Nc1cccc(-c2nc3ccccc3[nH]2)c1	-24	.	91	5	2.6
Cc1ccc(Cl)cc1N1CCN(C(=O)C2CCN(S(C)(=O)=O)CC2)CC1	.	5%	-7	8	-1.1
O=C(O)COc1ccccc1/C=N/NC(=O)c1cccc(S(=O)(=O)Nc2cccc(Cl)c2)c1	.	-2%	3	-5	5.5
O=S(=O)(c1ccc(Cl)nc1)N(Cc1ccccc1)Cc1ccccc1	-17	-1%	2	3	3.1
COc1cccc(CNC(=O)[C@H](C)NC(=O)C2CCN(S(=O)(=O)c3ccccc3)CC2)c1	.	.	-6	.	-0.7
CC(=O)Nc1cc2c(=O)n(Cc3ccccc3)c(C)nc2cc1N1CCOCC1	-16	1%	-5	-3	.
Fc1cc(Cl)c(OCc2noc(-c3ccsc3)n2)c(Cl)c1	.	-7%	1	.	-2.8
CCN(CC(=O)Nc1c(F)cccc1F)C(=O)CCCNC(=O)c1ccc(Cl)cc1	.	.	-2	.	1.6
Cc1cccc(C)c1NC(=O)CS(=O)CC(=O)NCCCc1ccccc1 (configuration not stated)	-37	0%	-3	10	.
CCOc1ccc(CCNC(=O)CSCC(=O)Nc2cccc(C)c2)cc1OCC	.	.	-5	.	2.6
CN(C)CCNC(=S)Nc1ccc(Br)cc1	-4	1%	-1	11	3.2

A draw from above in order of count of non-hydrogen atoms, low to high.
SMILES	YopH inh	Mtb H37Rv	Mtb betalactam	Arbovirus anti	RecA splice inh	others
O=C(/C=C/c1ccco1)Nc1cccc(-c2nc3ccccc3[nH]2)c1	-24	.	91	5	2.6
CC(=O)Nc1cc2c(=O)n(Cc3ccccc3)c(C)nc2cc1N1CCOCC1	-16	1%	-5	-3	.
O=C(O)COc1ccccc1/C=N/NC(=O)c1cccc(S(=O)(=O)Nc2cccc(Cl)c2)c1	.	-2%	3	-5	5.5

Returning to the listing, starting 7 compounds before the break.
SMILES	YopH inh	Mtb H37Rv	Mtb betalactam	Arbovirus anti	RecA splice inh	others
COc1cccc(CNC(=O)[C@H](C)NC(=O)C2CCN(S(=O)(=O)c3ccccc3)CC2)c1	.	.	-6	.	-0.7
CC(=O)Nc1cc2c(=O)n(Cc3ccccc3)c(C)nc2cc1N1CCOCC1	-16	1%	-5	-3	.
Fc1cc(Cl)c(OCc2noc(-c3ccsc3)n2)c(Cl)c1	.	-7%	1	.	-2.8
CCN(CC(=O)Nc1c(F)cccc1F)C(=O)CCCNC(=O)c1ccc(Cl)cc1	.	.	-2	.	1.6
Cc1cccc(C)c1NC(=O)CS(=O)CC(=O)NCCCc1ccccc1 (configuration not stated)	-37	0%	-3	10	.
CCOc1ccc(CCNC(=O)CSCC(=O)Nc2cccc(C)c2)cc1OCC	.	.	-5	.	2.6
CN(C)CCNC(=S)Nc1ccc(Br)cc1	-4	1%	-1	11	3.2
Cc1ccc2cccc(OC(=O)c3ccc4c(c3)OCCO4)c2n1	-33	-4%	0	0	2.4
COc1ccc(C(=O)N/C(=C\c2cn(C)c3ccccc23)C(=O)N2CCOCC2)cc1OC	.	.	5	.	-2.5
CN1C(=O)N(C)C2(c3ccccc3)N(C)C(=O)NC12c1ccccc1 (configuration not stated)	-39	0%	-2	5	1.0
CC(=O)Nc1ccc(-c2csc(NCCc3ccccc3)n2)cc1	.	.	-3	.	5.8
CC1CN(CCCCSc2ccccc2)CC(C)O1 (configuration not stated)	.	.	-4	.	2.1
COc1ccc(C(=O)O)cc1S(=O)(=O)NCc1ccccn1	.	.	3	.	-1.0
COCC(=O)Nc1nc2n(n1)C(c1ccc(OC)cc1)CC(c1ccc(OC)cc1)N2 (configuration not stated)	-19	1%	.	1	-11
Cc1ccc([N+](=O)[O-])cc1N1C(=O)CS/C1=N\NC(=O)c1cccnc1	.	-5%	4	-2	-0.1
COc1ccc(-n2c(C)nc3c(cnn3-c3ccc(C)cc3)c2=O)cc1	.	12%	-1	24	0.2
O=C1C(=O)N(CCCO)C(c2ccc(Br)cc2)/C1=C(\O)c1ccc(Br)cc1 (configuration not stated)	.	.	-7	.	3.6
CCC(=O)N(c1ccc(F)cc1)C1C=CS(=O)(=O)C1 (configuration not stated)	-34	1%	6	-1	-1.7
Cc1ccc2c(c1)c(-c1ccccc1)nc1nnnn12	.	-1%	-12	-2	-3.3
COc1c(Cl)cc(Cl)cc1CNc1ccc(S(N)(=O)=O)cc1	.	-1%	-1	-9	3.4
CC(C)(C)NC(=O)C(c1ccc(Cl)cc1)N(Cc1ccco1)C(=O)CCl (configuration not stated)	.	.	2	.	69*
COc1cccc(C(=O)Nc2ccc(N3CCN(Cc4ccccc4)CC3)cc2)c1	-14	34%	1	12	-1.5
COC(=O)COc1ccc(-c2ccc(F)cc2)cc1C=O	.	5.7µM*	-5	2	-0.5
CCN(CC)C(=O)CC(c1ccc2c(c1)OCO2)c1c(O)cc(OC)cc1OC (configuration not stated)	.	-2%	-11	.	0.3
Cc1ccc(C)c(N2CCN(c3ncnc4c3cnn4-c3ccccc3)CC2)c1	-44	9%	.	17	.	Arbovirus anti repeat=24
S=c1[nH]nc2n1CCCN2	.	.	4	.	-4.2
Cn1c(=O)c2c(nc(N3CCOCC3)n2CC(=O)C23CC4CC(CC(C4)C2)C3)n(C)c1=O	-37	44%	-1	-5	0.0
CCCCN(CCCC)CCNC(=O)c1cn(CC)c2ccc(S(=O)(=O)N3CCc4ccccc4C3)cc2c1=O	.	.	80	.	2.0
Cc1cc(=O)oc(C)c1C(=O)NCCc1ccccc1	-5	-3%	-11	0	1.0
CN(C)C(=S)SSC(=S)N(C)C	.	?	100	-30	7.3
COc1ccc(CC(=O)NNc2ncnc3c2cnn3-c2ccccc2)cc1	-28	-8%	2	0	-1.4
COc1ccc(CCN2CC(C(=O)NCCc3ccccc3C(F)(F)F)CCC2=O)cc1 (configuration not stated)	.	.	5	.	0.8
Cc1[nH]n(-c2ccccc2)c(=O)c1/C=N/NC(=O)c1cccc(F)c1	.	.	76	.	11
O=C(CCCN1C(=O)/C(=C\c2ccccc2)SC1=S)Nc1cccc(C(=O)O)c1	.	.	3	.	17
COc1ccc(C2SCC(=O)N2c2c(C)n(C)n(-c3ccccc3)c2=O)cc1OC (configuration not stated)	0	2%	3	7	0.2
COc1ccc(C)cc1NC(=O)c1ccc2c(O)c(S(=O)(=O)c3ccccc3)c(=O)[nH]c2c1	.	.	66	.	0.7
c1cc(-c2nnn(CCOCCn3nnc(-c4ccncc4)n3)n2)ccn1	.	.	3	.	-1.9
CCOC(=O)C1C(=O)CC(C)(O)C(C(=O)OCC)C1c1ccc(SC)cc1 (configuration not stated)	.	9%	1	3	1.7
COCCCNC(=S)NC1CC2CCCC(C1)N2Cc1cccs1 (configuration not stated)	-37	-1%	0	6	1.1
COc1ccc(C2NC(=O)C(C#N)=C(S)N2c2ccccc2)cc1OC (configuration not stated)	.	-7%	-7	-1	0.0
CCOC(=O)c1cc(C#N)c(Nc2ccc(C)cc2)nc1C(F)(F)F	.	-2%	2	.	-2.6
Cc1nc(CSc2nnc3scc(-c4ccccc4)n23)cs1	-4	-15%	-4	5	1.2
Cc1cc(C)c(OCCCNCc2ccccc2)c(Br)c1	.	.	-1	.	0.3
CC(=NCc1cccnc1)c1c(O)n(-c2ccc(Cl)cc2)c(=O)[nH]c1=O	.	-7%	-7	.	.
CCOC(=O)COn1c(=O)c(-c2ccccc2)[n+]([O-])c2ccccc21	.	.	0	.	-2.6
Cc1cccc2c(C(=O)N3CCN(c4ccccc4)CC3)cc(-c3ccncc3)nc12	.	.	89	.	-0.4
CC(=O)c1ccc(NC(=O)COC(=O)c2ccccc2Sc2ccccc2C#N)cc1	-46	2%	-4	4	-0.2
O=C1C(Cl)=C(N2CCN(Cc3ccccc3)CC2)C(=O)N1c1ccccc1	-27	9%	31	17	7.7
CC(=O)Nc1nc2c(C)cc(NC(=O)C3CCCCC3)cc2s1	.	.	-1	.	-5.4
COc1ccc(CNC(=O)c2ccc(NS(=O)(=O)c3c(C)noc3C)cc2)cc1	-35	-15%	-4	4	-1.9
CC(C)(C)C(=O)Nc1nc(C2CCCN2S(=O)(=O)c2ccc(Cl)cc2)cs1 (configuration not stated)	-13	2%	-10	15	4.2
CCOC(=O)N1CCC(NS(=O)(=O)c2ccc3c(c2)OCC(=O)N3)CC1	-36	-7%	3	6	-3.9
CC1C(=O)Nc2ccc(S(=O)(=O)N3CCN(c4ccccc4F)CC3)cc2NC1=O (configuration not stated)	.	.	2	.	-3.4
Cc1cc(C)cc(Nc2c3c(nc4ncnn24)CCC3)c1	.	-3%	-2	-15	1.5
COc1ccc(CNC(=O)c2ccc(CS(=O)(=O)c3ccc(C)cc3)o2)cc1	.	.	-9	.	-3.8
OCCN1CCN(c2nc3ccccc3nc2-c2ccccc2)CC1	.	-2%	-7	-2	-5.7
CC1CN(S(=O)(=O)c2ccc(Cl)c(C(F)(F)F)c2)CC(C)O1 (configuration not stated)	-13	-12%	-3	10	0.6
CC(OC(=O)c1ccc(C(C)(C)C)cc1)C(=O)NC1CCCCC1C (configuration not stated)	.	.	-2	.	2.8
Cc1c(NS(=O)(=O)c2cccs2)c(=O)n(-c2ccccc2)n1C	-49	2%	-14	-7	0.2
O=C(c1cccn2c(=O)c3cc4ccccc4cc3nc12)N1CCN(c2ccccc2)CC1	6	.	.	-4	2.1
O=S(=O)(Nc1ccc(Cl)cc1)c1ccc2c(c1)CCO2	.	5%	-8	.	8.5
Cn1cc(-c2ccccc2C(N)=O)c(=O)c2ccccc21	.	0%	2	19	-6.7
O=C(NCC1CCCO1)c1cnc(Cl)c(Cl)c1 (configuration not stated)	.	.	0	.	-2.4
CC(NS(=O)(=O)c1ccc([N+](=O)[O-])cc1)C(c1cccs1)N1CCOCC1 (configuration not stated)	.	-3%	-14	8	0.7
COc1ccc(NC(=O)c2cccc(S(=O)(=O)N3CCOCC3)c2)cn1	-13	-2%	-4	-4	-4.7
O=C(/C=C/c1ccc(O)c(O)c1)c1ccccc1O	.	-4%	42	.	-6.7
COc1ccc(/C=C2/SC(=S)NC2=O)cc1OCc1ccccc1	.	.	88	.	-1.4
